RGS16-Gao = regulators of human RGS16-Galphao interaction; O15492+P09471; bead-based flow cytometry RGS16-Galphao binding, fluorescence; actives lie on both sides; binding response (% of control), % at 10 µM; 220,000 compounds, 0.38% hits;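 active = below 25% or above 175%, edge rows of some plates excepted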;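 note: Galphao activated by GDP with aluminum fluoride before binding; 100% = wells without compound and 0% = beads without RGS; some results beyond the cut were filed as inactive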
Target sequence (O15492 whole entry, looked up): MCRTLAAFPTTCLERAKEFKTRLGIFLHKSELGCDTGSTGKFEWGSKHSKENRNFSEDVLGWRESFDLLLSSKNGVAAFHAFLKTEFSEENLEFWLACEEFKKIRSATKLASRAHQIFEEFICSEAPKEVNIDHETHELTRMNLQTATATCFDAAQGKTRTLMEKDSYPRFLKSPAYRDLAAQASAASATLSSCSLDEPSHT
Target sequence (P09471 whole entry, looked up): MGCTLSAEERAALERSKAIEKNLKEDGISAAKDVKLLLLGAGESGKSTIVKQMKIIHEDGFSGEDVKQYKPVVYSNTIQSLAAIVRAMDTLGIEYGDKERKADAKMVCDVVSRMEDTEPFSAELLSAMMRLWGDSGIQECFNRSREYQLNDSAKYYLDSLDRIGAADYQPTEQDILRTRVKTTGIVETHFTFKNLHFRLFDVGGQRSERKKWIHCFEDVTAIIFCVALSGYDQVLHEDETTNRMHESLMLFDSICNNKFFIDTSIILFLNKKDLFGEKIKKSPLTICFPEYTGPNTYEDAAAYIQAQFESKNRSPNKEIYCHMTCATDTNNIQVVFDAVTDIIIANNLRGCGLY
INS promoter inh = TRM-6 insulin promoter activity inhibition. TRM-6 cells (human fetal islet line), insulin promoter-eGFP reporter, imaging; reporter expression induced with tamoxifen. inhibition, % at 2 µM. 130,000 compounds, 0.9% hits. AID 1273;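 active = inhibition above the mean plus 3 SD, with well images judged a real hit on visual review, cut at about 60% in these data, passing the limit was not always enough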
PKD1 kinase inh = inhibitors of human PKD1 kinase. PKD1 kinase fluorescence polarization assay. inhibition, %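 (about 10 µM by stock and volumes)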. 200,000 compounds, 0.056% hits;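 active = inhibition of 50% or more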;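 note: controls were vehicle for no effect and a reference inhibitor for full effect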
GALR2 ag = agonists of human galanin receptor 2 (GALR2). O43603. GALR2-expressing cells, agonist activation read-out. activation, %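 (tested at 5 µM)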. 140,000 compounds, 0.48% hits;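 active = above mean plus 3 SD of all compounds, about 5% in these data, not always enough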;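 note: 0% = vehicle buffer wells and 100% = reference agonist at full effect; tested in CHO reporter cells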
Target sequence (O43603 whole entry, looked up): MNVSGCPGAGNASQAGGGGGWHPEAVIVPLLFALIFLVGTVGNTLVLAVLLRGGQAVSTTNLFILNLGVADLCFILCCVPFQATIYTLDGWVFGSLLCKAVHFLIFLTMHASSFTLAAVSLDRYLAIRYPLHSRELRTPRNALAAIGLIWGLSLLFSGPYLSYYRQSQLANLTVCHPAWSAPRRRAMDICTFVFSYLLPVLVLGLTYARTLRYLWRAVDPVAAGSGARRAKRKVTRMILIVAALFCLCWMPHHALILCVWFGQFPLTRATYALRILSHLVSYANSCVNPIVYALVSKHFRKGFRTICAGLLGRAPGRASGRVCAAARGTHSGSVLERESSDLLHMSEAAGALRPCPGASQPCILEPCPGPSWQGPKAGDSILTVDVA
HSV augment = increases HSV replication in cells | HSV replication augmentation in cells, fold increase | maximum fold increase | 220,000 compounds, 0.005% hits | AID 1956;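 active = peak rise of 1.5-fold or more in the series; tested in PC3 cells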;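 note: first round at 10 µM; read as green reporter fluorescence; hits show the peak of a series up to 25 µM; 1 = signal of infected wells without compound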
INS promoter inh cell count = recorded beside INS promoter inh, whose call it bears; normalized cell count, %; measured here: cell count, toxicity; reference of the scale not given here;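 cells exposed to compound for 48 h; stained nuclei by imaging scaled within each plate; lower means fewer cells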
HSV augment primary fold = also measured in HSV augment; calls as there; fold increase; compound at 10 µM; measured here: primary screen fold increase 10 uM; tested in PC3 cells;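 GFP signal in the first replicate; 1 = infected wells without compound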
Active calls of the source: *; i = inactive; . = not tested or not shown.

Results follow in this order: INS promoter inh, HSV augment primary fold, GALR2 ag, INS promoter inh cell count, HSV augment, PKD1 kinase inh, RGS16-Gao
- C=CCNc1nc(S(=O)Cc2ccc(C)cc2)nc2c1CCCC2 (stereo not given)
    73*, 0.97, ., 73*, i, -5, 99
- O=C(CSc1nc(O)c(Cc2ccccc2)c(=O)[nH]1)Nc1nnc(SCc2ccccc2)s1
    ., 0.96, ., ., i, -1, 99
- CC(C)CC(=O)NC(=S)Nc1cccc(NC(=O)c2ccccc2Cl)c1
    -43, 0.79, -3.5, 72, i, -4, 105
- O=C(c1ccc(N2CCCCC2)c([N+](=O)[O-])c1)N1CCN(c2ccccn2)CC1
    20, 0.95, ., 103, i, -10, 101
- Cc1ccc2nc(N3CCOCC3)c(C=O)c(=O)n2c1
    -8, 0.94, ., 142, i, 4, 93
- COCC1CCN(C(=O)c2cc(COc3ccc4ncccc4c3)on2)CC1
    ., 1.1, ., ., i, -1, 99
- CC(C)NC(=O)Cn1nnc(-c2ccc(Cl)cc2)n1
    ., ., -3.3, ., ., 7, 99
- CCOc1ccc(N=C2NC(=O)C(CC(=O)Nc3ccc(OC)cc3)S2)cc1 (stereo not given)
    ., 0.89, ., ., i, -2, 105
- CC(=O)c1ccc(NC(=O)CN2C(=O)CCC2=O)cc1
    7, 0.98, ., 76, i, -3, 108
- CC(C)C(NS(=O)(=O)c1ccc(Br)s1)C(=O)O (stereo not given)
    -25, 0.95, -1.6, 70, i, -1, 103
- Cc1ccc(C(=O)NC(=C(Cl)Cl)S(=O)(=O)c2ccc(C)cc2)cc1
    37, 0.71, -1.1, 89, i, -5, 105
- Cc1nc(NC(=O)c2cc3c(s2)CCCCC3)sc1C(=O)N(C)C
    -369, 0.73, -0.5, 65, i, -6, 102
- CN1C(=C2C(=O)OC(C)(C)OC2=O)Sc2ccccc21
    18, 1.1, 0.2, 114, i, 7, 101
- COC(=O)Cc1c(C(=O)OC)nnn1-c1ccc(OC(F)(F)F)cc1
    -91, 1.1, ., 47, i, -5, 120
- COc1ccc(NC(=S)NC(NC(=O)c2cccc3ccccc23)C(Cl)(Cl)Cl)c([N+](=O)[O-])c1 (stereo not given)
    -6, 0.9, -0.6, 96, i, -7, 103
- CC(C)(O)C#Cc1ccccc1C(=O)NC(CC(N)=O)C(=O)O (stereo not given)
    -29, 0.88, -5.3, 59, i, -8, 101
- CN(C)S(=O)(=O)c1cccc(C(=O)C2=C3SC=C(c4ccccc4)N3CC2)c1
    -17, 1.1, -0.8, 105, i, -9, 96
- CC(C)(C)c1ccc(/C=C2/SC(N3CCCC3)=NC2=O)cc1
    ., 0.77, ., ., i, ., 104
- Cc1cccc(C)c1OCC(=O)N(Cc1cccs1)C1CCS(=O)(=O)C1 (stereo not given)
    ., 1.1, ., ., i, ., 99
- COc1ccc(/C=N/NC(=O)c2ccc(CN3c4cccc5cccc(c45)S3(=O)=O)cc2)cc1
    4, 0.94, -1.7, 55, i, 0, 69
- COCCSc1nnc(NS(=O)(=O)c2ccc(F)cc2)s1
    22, 1.1, ., 83, i, -5, 97
- O=C(CSc1nnnn1-c1ccc(F)cc1)c1ccc(O)c(O)c1
    -400, 0.89, ., 45, i, 5, 85
- C=CCNc1oc(COc2ccc(C)cc2)nc1C#N
    ., 0.91, -1.6, ., i, 3, 110
- Cc1csc(SCC(=O)Nc2c(C)n(C)n(-c3ccccc3)c2=O)n1
    62, 0.88, -2.3, 81, i, -1, 240
- CS(=O)(=O)N(CC(=O)Nc1cccc([N+](=O)[O-])c1)c1ccccc1F
    65, 0.95, ., 60, i, -1, 112
- O=C(Nc1nc2c(Cl)cccc2s1)c1ccc(Br)o1
    ., 0.86, -0.4, ., i, -6, 99
- CN(C)S(=O)(=O)c1ccc(C(=O)Nc2ccc(OCC(=O)N3CCOCC3)cc2)cc1
    -17, 0.93, -0.1, 98, i, -2, 116
- Brc1ccccc1-c1nnc(COc2ncnc3c2cnn3-c2ccccc2)o1
    7, 0.79, -1.8, 61, i, -7, 97
- O=c1c2c(nc3nc(SCc4ccccc4)[nH]n13)CCC2
    -40, 1, -0.4, 109, i, 2, 100
- Cc1ccc(-c2cc(C(=O)NCc3ccccn3)c3ccccc3n2)cc1
    4, 1.2, -1.8, 140, i, -6, 99

Quoted at random: 5 compounds from above
Results follow in this order: INS promoter inh, HSV augment primary fold, GALR2 ag, INS promoter inh cell count, HSV augment, PKD1 kinase inh, RGS16-Gao
- C=CCNc1nc(S(=O)Cc2ccc(C)cc2)nc2c1CCCC2 (stereo not given)
    73*, 0.97, ., 73*, i, -5, 99
- COc1ccc(NC(=S)NC(NC(=O)c2cccc3ccccc23)C(Cl)(Cl)Cl)c([N+](=O)[O-])c1 (stereo not given)
    -6, 0.9, -0.6, 96, i, -7, 103
- C=CCNc1oc(COc2ccc(C)cc2)nc1C#N
    ., 0.91, -1.6, ., i, 3, 110
- Cc1cccc(C)c1OCC(=O)N(Cc1cccs1)C1CCS(=O)(=O)C1 (stereo not given)
    ., 1.1, ., ., i, ., 99
- Cc1nc(NC(=O)c2cc3c(s2)CCCCC3)sc1C(=O)N(C)C
    -369, 0.73, -0.5, 65, i, -6, 102

Carrying on.
Results follow in this order: INS promoter inh, HSV augment primary fold, GALR2 ag, INS promoter inh cell count, HSV augment, PKD1 kinase inh, RGS16-Gao
- COc1cc(/C=N/NC(=O)CCc2n[nH]c(=O)[nH]c2=O)cc(OC)c1OC
    0, 1.1, -0.6, 86, i, -2, 104
- O=C(CSCc1cnn(-c2ccccc2)c1-n1cccc1)NCc1cccs1
    7, 0.79, -1.5, 87, i, 0, 100
- CSc1nc2cc(C)nn2c(-c2ccc(C(C)(C)C)cc2)c1C#N
    ., 1, ., ., i, ., 101
- O=C(Cn1nc2sc3ccccc3n2c(=O)c1=O)c1ccc(Cl)cc1
    ., 0.99, ., ., i, ., 100
- CCOC(=O)C1=c2/c(=C/c3ccncc3)c(N)c(C(=O)OC)n2C(=O)C(c2ccncc2)S1 (stereo not given)
    20, 0.92, ., 92, i, 0, 107
- O=C(Nc1ccc(Cl)cn1)c1ccc(COc2ccccc2Br)o1
    44, 0.89, ., 113, i, -9, 50
- CCn1nnc(NC(=O)C(C)(c2ccccc2)c2ccccc2)n1
    ., 0.95, ., ., i, 4, 105
- CCCCCCCNc1nc(Cl)nc(NCCO)n1
    21, 0.87, ., 120, i, 10, 97
- Cc1ccccc1NC(=O)CNC(=O)c1ccc(C(F)(F)F)cc1
    0, 0.93, -0.7, 107, i, -7, 91
- O=C1N(c2ccc3c(c2)OCCO3)C(c2ccccc2)C1(F)F (stereo not given)
    ., 0.87, ., ., i, 0, 102
- C=CCn1c(=O)/c(=C/c2ccc(Cl)cc2)s/c1=C(/C#N)c1nnc2n1CCCCC2
    ., 0.85, -2.1, ., i, -5, 98
- CC1=C(C(=O)Nc2ccc(C)cc2C)C(c2cccs2)NC(=S)N1 (stereo not given)
    21, 0.79, 5.7, 124, i, -22, -321
- O=C(CSc1nnc(-c2cc(-c3cccs3)nc3ccccc23)o1)NC1CCCCC1
    11, 1, -0.7, 92, i, -8, 234
- CCc1ccc(-c2csc3ncn(CC(=O)N4CCOCC4)c(=O)c23)cc1
    0, 1, -0.6, 92, i, -4, 97
- Cc1ccc(C(=O)N(CC(=O)NC2CCCC2)c2ccc3c(c2)OCCO3)s1
    -45, 0.94, ., 42, i, -8, 123
- Cc1cc(NS(=O)(=O)c2ccc(NC(=O)C(C)N3C(=O)c4ccccc4C3=O)cc2)nc(C)n1 (stereo not given)
    56, 0.87, -0.3, 124, i, 4, 104
- CC1CC(C)CN(CC(=O)Nc2ccc(S(N)(=O)=O)cc2)C1 (stereo not given)
    33, 0.79, -2.6, 92, i, -3, 97
- CCc1sc(NC(=O)CCC(=O)O)nc1-c1cc2ccccc2oc1=O
    ., 0.94, ., ., i, -3, 93
- COc1ccc(-c2nc(-c3ccc(NC(=O)c4ccc(Br)o4)cc3)no2)cc1OC
    -20, 0.63, -0.1, 171, i, 6, 106
- O=C(O)CCC(=O)Nc1ccc2c(c1)oc1ccccc12
    -262, 0.69, -1.2, 86, i, -9, 104
- Cc1ccc(C)c(N2CCN(C(=O)c3cccn4c(=O)c5sccc5nc34)CC2)c1
    ., 0.73, ., ., i, -9, 102
- CCn1cc(/C=C/C(=O)Nc2c(C)nn(Cc3ccccc3C)c2C)cn1
    -23, 0.91, -1.2, 165, i, 9, 106
- CC1(Cc2cn(CCC#N)c3ccccc23)OCCO1
    ., 0.91, -0.2, ., i, -20, 94
- COc1ccc(C2=NO[C@@H]3C(=O)N(Cc4ccccc4)C(=O)[C@H]23)cc1OC
    13, 1, -3.0, 159, i, 2, 102
- S=C1NCN(Cc2cccnc2)CN1c1cccc2ccccc12
    ., 0.84, ., ., i, ., 26
- O=C(Nc1cnn(Cc2ccc(F)cc2)c1)c1noc2c1CCCC2
    ., 0.88, ., ., i, -10, 101
- CCN(CC)S(=O)(=O)c1cccc(NC(=O)COC(=O)C2COc3ccccc3O2)c1 (stereo not given)
    27, 0.95, -0.2, 98, i, -8, 111
- CCCC1=C(C(=O)OCC)C(c2ccc(O)cc2)n2ncnc2N1 (stereo not given)
    -11, 0.94, 1.1, 87, i, -5, 107
- COCCCNC(=O)CCn1c(=O)c2ccccc2n(CC(=O)Nc2ccc(C)cc2C)c1=O
    -5, 0.9, -0.9, 122, i, -8, 101
- O=C(CSCc1c(Cl)cccc1Cl)Nc1cccnc1
    15, 1, ., 52, i, 3, 101
- CCCCCNc1nc(-c2ccccc2)cs1
    36, 0.92, -1.1, 102, i, -11, 117
- CCOC(=O)C1CCCCN1Cc1ccc(F)c(Br)c1 (stereo not given)
    ., 0.85, -1.3, ., i, 7, 92
- Cc1nc(-c2cccnc2)sc1C(N)=O
    -3, ., -1.9, 101, ., -9, 98
- C[C@@H]1CN(c2nc3nonc3nc2N2CCSCC2)C[C@H](C)O1
    ., 1.2, ., ., i, 10, 101
- COc1ccc(N=c2oc3c(OC)cccc3cc2C(=O)NCc2ccco2)cc1OC
    ., 0.68, 2.0, ., i, -9, 104
- c1ccc(-n2nnnc2SCc2cn3ccccc3n2)cc1
    -90, 1, -0.3, 77, i, -12, 103
- CCCN(CCC)S(=O)(=O)c1ccc(C(=O)NCc2n[nH]c(=S)n2-c2ccc(Cl)c(Cl)c2)cc1
    0, 0.9, ., 52, i, -1, 102
- O=C(N/N=C/c1nn(-c2ccccc2)cc1-c1ccc(Cl)cc1)c1ccncc1
    ., 0.84, ., ., i, 6, 95
- CCOc1ccc(-c2nnc3ccc(SCC(=O)Nc4nc5ccc(C)cc5s4)nn23)cc1
    ., 1.1, -1.2, ., i, -2, 101
- COc1ccc(C(=O)NCC2OCCc3ccccc32)c(O)c1 (stereo not given)
    -12, 1, -0.9, 184, i, -11, 97
- COc1cc(C)c(S(=O)(=O)N2CCOCC2)cc1C
    38, 0.98, -3.0, 95, i, -4, 111
- O=C(O)CCC(=O)NC1CCCCCCC1
    -411, 0.9, -1.8, 37, i, -11, 104
- Cc1cc(C)n2c(SCCO)nnc2n1
    ., 1.1, ., ., i, ., 104
- COc1cccc(CN2CCNC(=O)C2CC(=O)N(C)CCc2ccccn2)c1 (stereo not given)
    ., 1.1, ., ., i, -5, 110
- CCOc1ccccc1-c1nnc(SCC(=O)Nc2ccccc2)o1
    -6, 1.1, -2.5, 103, i, 2, 105
- Cc1cc2c(cc(C(=O)NCCCN3CCOCC3)n2Cc2ccc(Cl)cc2)o1
    27, 1, -1.0, 85, i, 1, 104
- CCC(c1nnnn1CCOC)N1CCN(c2cccc(C(F)(F)F)c2)CC1 (stereo not given)
    28, 0.85, -1.0, 98, i, -14, 104
- CC(OC(=O)CCCOc1ccccc1)C(=O)NC(N)=O (stereo not given)
    -5, 0.73, -1.9, 72, i, -9, 98
- O=CN(/C=C1\Sc2ccccc2C1=O)Cc1ccccc1
    -17, 0.9, -0.3, 118, i, -5, 106
- O=C(CSc1nnc(COc2ccccc2)o1)Nc1nccs1
    10, ., -0.8, 108, ., -1, 103
- C=CCOc1c(Br)cc(/C=N\n2nnnc2N)cc1OC
    0, 0.97, -0.2, 53, i, -10, 129
- [O-][n+]1onc2c1C(N1CCOCC1)CCC2N1CCOCC1 (stereo not given)
    15, 0.99, -2.9, 90, i, 0, 107
- CN(C)CCNC(=O)COc1ccc(C23CC4CC(CC(C4)C2)C3)cc1
    ., 0.82, ., ., i, -4, 104
- CCN(c1ccccc1)S(=O)(=O)c1ccc(Cl)nc1
    27, 0.99, ., 136, i, -3, 92
- C/C(=N\NC(=O)c1ccccc1)c1ccccc1F
    ., 0.89, ., ., i, -3, 96
- COC(=O)c1ccc(CSc2nc3c(cnn3-c3ccccc3)c(=O)[nH]2)o1
    0, 0.84, -1.1, 142, i, -6, 103
- CN(Cc1nc(-c2ccccn2)no1)S(=O)(=O)c1ccc(Br)cc1
    -62, 0.91, -0.1, 13, i, -2, 117
- O=C(Cn1c2c(c(=O)n3ncnc13)CCC2)N/N=C/c1cccs1
    ., 0.88, ., ., i, ., 97
- CCc1ccc(/C=C2/C(=O)N(CC)C(=S)N2C)s1
    69*, 0.99, 0.6, 86*, i, 4, 113
